BJeLR viability = kills HRASV12-expressing BJeLR cells. BJeLR (HRASV12) viability, CellTiter-Glo ATP luminescence, 48 h; reference of the scale not given here. inhibition, % (concentration not given with the values). 0.17% of 300,000 active;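 active means replicate mean above 50%; inconclusive means above 50% but judged a plate artefact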;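 further: 50 nL library stock added to about 25 µL; numbers are from one replicate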
Bead autofluor = flagged as autofluorescent in microsphere protease counterscreen. compound autofluorescence counterscreen, microsphere flow cytometry; stronger effect = higher value. fluorescence intensity (no concentration beside the values). 3.1% of 360,000 active;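 active means at least 3 SD above the mean of all compounds, about 16000 in these data; inconclusive means too few beads counted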;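 further: 100 nL of 1 mM stock went into each well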
ugtP null kill = growth inhibition of S. aureus ugtP deletion strain; S. aureus RN4220 ugtP deletion, OD600 growth, 16 h; some inactives read as strong as hits; growth inhibition, % (test concentration not listed); 0.54% of 330,000 active; AID 1259309;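 active means z-score under -3 and OD600 up to 0.15 on both plates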;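 further: plate controls were untreated wells for no effect and antibiotic for full effect; wells of about 80 µL received 100 nL stock; the first replicate is given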
Mtb hypoxia rep = inhibitors of hypoxia-regulated fluorescent reporter in Mycobacterium tuberculosis | M. tuberculosis hypoxia-regulated fluorescent reporter, fluorescence | fluorescence inhibition, % (concentration not given with the values) | 0.1% of 300,000 active | AID 1159583;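 active means 35 to 45% if threefold the growth effect, above 45% if 1.5-fold the growth effect; inactive means the rest, general growth blockers included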;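 further: wells of about 50 µL received 100 nL stock; 0% = vehicle wells and 100% = reference inhibitor wells; whole bacteria with a GFP reporter of the hypoxia response; strong numbers were not always called active; many hits fall short of the cut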
PrP UTR inh = inhibition of PrP 5' UTR reporter expression | inhibition, % (test concentration not listed) | cell-based PrP 5' UTR mRNA reporter, plate reader | 0.35% of 340,000 active;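 active means every replicate at 50% or more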;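 further: 0 = median of the neutral control wells; tested in H4 reporter cells; numbers are from one replicate; inactives centre near -14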
RN4220 kill = kills Staphylococcus aureus RN4220 | S. aureus RN4220 growth, OD600, 16 h | inhibition, % (test concentration not listed) | 0.33% of 330,000 active;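 active means z-score of -3 or lower and OD600 up to 0.18 on both plates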;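 further: plate controls were untreated cells for no effect and reference antibiotic for full effect; stock transfer was 100 nL into about 80 µL; one replicate is shown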
Mtb hypoxia rep growth = second read-out of Mtb hypoxia rep, no call of its own (marks repeat the call); growth inhibition, %; measured here: M. tuberculosis growth (absorbance);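 0% = vehicle and 100% = reference antibiotic; read after six days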
* marks the source's active call; other numbers are inactive results; ? = inconclusive; nt = no result given. No enrichment for hits; overall some 4% were active at least once.

SMILES	BJeLR viability	Bead autofluor	ugtP null kill	Mtb hypoxia rep	Mtb hypoxia rep growth	PrP UTR inh	RN4220 kill
Cc1c(C=O)c2ccccc2n1Cc1cccc(F)c1	8.4	3007	4.1	12.4	4.5	-35.2	-1.8
COc1ccc(NC(=O)C2C3C=CC4(O3)C2C(=O)N(CCN2CCCCC2)C4C(=O)NC2CCCCC2)cc1 (stereo unspecified)	-2.9	5493	0.4	-6.5	1.1	-7.3	0.3
CC1CC(C)CN(C(=O)C2CCCN(c3ncnc4c3nc3n4CCCCC3)C2)C1 (stereo unspecified)	0.4	3866	0.6	0.8	9.1	-16.8	7.0
C#CCOCCOCCOCCNc1nc(N2CCN(C(=O)C(CCC(=O)O)n3cc(C(N)CCCCN)nn3)CC2)nc(N2CCN(C(=O)C(CC(N)=O)n3cc(C(N)C(C)CC)nn3)CC2)n1 (stereo unspecified)	nt	nt	-1.3	10.5	10.0	nt	7.0
CC1CCCC(C)N1C(=O)Nc1cccc(Cl)c1 (stereo unspecified)	7.0	9684	-3.2	2.8	4.6	-19.4	-0.4
O=C(Nc1cccc(S(=O)(=O)N2CCOCC2)c1)C1CCN(S(=O)(=O)c2ccccc2)CC1	nt	nt	0.9	14.9	6.2	-2.4	1.9
CN(C)CCCN(Cc1ccccc1)C(=S)Nc1ccc(F)c(Cl)c1	7.1	3479	-13.0	-0.3	4.2	-11.6	1.1
O=C(Nc1nc2ccsc2c(=O)s1)c1ccc(Cl)cc1	-2.2	3655	1.6	7.4	-1.2	-86.6	5.2
Brc1ccc(CNc2ccc3ncccc3c2)cc1	9.2	3945	0.9	6.6	3.0	-60.4	7.2
COc1ccc(S(=O)(=O)N2CCOCC2)cc1C(=O)Nc1ccon1	-5.4	2655	-1.7	nt	nt	-15.3	-0.3
Cc1ccc(NCc2nnc(SCC(N)=O)n2CCc2ccccc2)cc1	8.1	nt	-0.5	1.1	-6.8	nt	5.3
CCOC(=O)N1CCC(c2nc(C)sc2C(=O)O)CC1	0.5	7687	10.4	5.8	2.9	-8.9	4.5

Next section; it opens with the three that closed the last part.
SMILES	BJeLR viability	Bead autofluor	ugtP null kill	Mtb hypoxia rep	Mtb hypoxia rep growth	PrP UTR inh	RN4220 kill
COc1ccc(S(=O)(=O)N2CCOCC2)cc1C(=O)Nc1ccon1	-5.4	2655	-1.7	nt	nt	-15.3	-0.3
Cc1ccc(NCc2nnc(SCC(N)=O)n2CCc2ccccc2)cc1	8.1	nt	-0.5	1.1	-6.8	nt	5.3
CCOC(=O)N1CCC(c2nc(C)sc2C(=O)O)CC1	0.5	7687	10.4	5.8	2.9	-8.9	4.5
COC(=O)c1ccc(CNC(=O)COC(=O)CCN2C(=O)C3CC=CCC3C2=O)cc1 (stereo unspecified)	3.3	6537	4.2	5.2	-5.9	-9.2	2.5
CC(=O)c1cccc(CN2CCCC(C(=O)Nc3cccc(-n4cccn4)c3)C2)c1 (stereo unspecified)	-7.5	6179	3.8	3.1	4.4	-8.6	-2.4
COCC(=O)n1nc(-c2ccc(Cl)cc2)nc1NCc1ccc(F)cc1	1.6	?	-5.8	0.8	0.6	-17.0	-0.1
CCN1C(=O)/C(=C/N2CC(C)CC(C)C2)SC1=S (stereo unspecified)	-4.3	2940	nt	nt	nt	-22.6	nt
Cc1ccc(C2=NN(S(=O)(=O)c3ccccc3)C(c3ccco3)C2)cc1 (stereo unspecified)	nt	7991	13.4	5.4	-10.2	-29.4	3.2
COC(=O)C(Cc1ccc(O)cc1)NC(=O)CCNC(=O)c1ccco1 (stereo unspecified)	-12.4	3803	8.1	-6.0	8.1	-29.5	3.7
O=C(Nc1ccc2c(c1)OCCO2)NC12CC3CC(CC(C3)C1)C2	1.5	9659	-2.3	nt	nt	-80.4	3.3
COc1cccc(COC(=O)CCNC(=O)c2ccc(Br)cc2)c1OC	2.9	?	7.7	-0.3	-0.5	-19.3	1.5
COCCNC(=S)N=Nc1c(O)[nH]c2c(C)cc(C)cc12	-4.5	4213	nt	nt	nt	-19.4	nt
Cc1ccc(CN2[C@@H](c3ccccc3)COCCS2(=O)=O)cc1	-0.1	3437	nt	nt	nt	-17.3	nt
Cc1cc(C(=O)CN2C(=O)C(=O)N(Cc3ccccc3)C2=O)c(C)n1-c1ccc2c(c1)OCCO2	-1.6	4401	-22.1	2.2	-1.9	-21.4	0.5
Cc1nnc(N2CCOCC2)c2nn(-c3ccccc3)c(C)c12	-7.5	4416	3.5	0.7	6.1	-17.9	6.1
Cc1ccccc1-c1nc(CN2CCCC2c2ccc(F)cc2)c(C)o1 (stereo unspecified)	3.8	6811	10.7	-0.2	-1.5	-8.3	5.1
CCCCOc1cccc(C2(C(=O)O)CCCC2)c1	nt	4964	-1.1	nt	nt	-21.9	6.8
Cc1ccc(-n2cc(CNCCCn3cccn3)c(-c3cccc(C)c3)n2)cc1	17.5	6156	-4.3	-10.0	-1.7	-10.9	-7.7
O=C(Nc1ccccc1C(=O)N1CCCC1)c1ncoc1-c1cccc(Cl)c1	0.2	5853	6.3	12.0	5.6	-15.2	-0.9
Cc1ccc(CNC(=O)Cn2c(=O)c3sccc3n(Cc3ccc([N+](=O)[O-])cc3)c2=O)cc1	1.8	2525	nt	nt	nt	14.6	nt
O=[N+]([O-])c1cc(C(F)(F)F)ccc1Sc1ccccn1	4.5	2489	-0.5	5.7	2.6	-3.7	2.4
Cn1c(C(=O)NCCN2CCc3ccccc3C2)cc2c(=O)n(C)c3ccccc3c21	-13.5	5595	4.6	nt	nt	-37.7	1.3
C/C(=N/NC(=O)CCc1ccccc1)c1ccc2c(c1)OCO2	13.7	4151	nt	nt	nt	-5.4	nt
CCCN1CCC(=O)N([C@H](COc2ccccc2)CC(C)C)CC1	8.1	3879	nt	nt	nt	-25.0	nt
COc1cc(/C=C2\C=CC(=O)O2)cc(OC)c1	-0.7	4307	-8.5	-4.5	8.1	nt	2.9
CC[C@@H](C)[C@@H]1CN([C@@H](CN2CCC[C@H]2CN2C(N)=NC[C@H]2C(C)C)C(C)C)C(=N)N1CCCC1CCCC1	nt	3005	99.7*	nt	nt	4.1	94.0*
COc1cccc(-c2ccc(=O)n(CC(=O)Nc3ccc(S(=O)(=O)NCC(C)C)cc3)n2)c1	-7.7	nt	6.5	3.6	4.4	nt	-0.1
COC(=O)c1ccc(COC(=O)C(NC(=O)Cc2ccccc2)C(C)C)cc1 (stereo unspecified)	nt	nt	6.8	1.2	3.9	-17.2	-2.4
COc1ccc(C(=O)NC(=O)COC(=O)CCS(=O)(=O)c2ccc(C)cc2)cc1	nt	6196	0.4	10.6	9.3	-20.4	1.1
COc1ccc(N/N=C(/C(C)=O)N2CCCc3ccccc32)cc1	-2.7	6210	nt	nt	nt	-30.3	nt
Cc1cc2n(n1)C(c1cn(-c3ccccc3)nc1C)Nc1ccccc1-2 (stereo unspecified)	5.4	22907*	-12.7	-5.4	-1.8	-6.2	-7.5
COC(=O)CSc1nc(N)nc(C)c1Br	3.0	3276	2.9	nt	nt	-4.3	1.8
COc1ccc(-n2c(-c3ccc(OC)c(OC)c3)n[nH]c2=S)cc1	1.4	3202	-1.7	-2.6	-5.5	-7.7	3.1
O=C(Nc1ccccc1-c1nnn(CC(=O)N2CCc3ccccc3C2)n1)C1CCC1	-6.4	3184	0.1	3.7	4.9	-10.1	-0.1
NC(=O)CNC(=O)[C@@H]1CC2(CC(c3ccc(Cl)cc3)=NO2)CN1C(=O)c1ccc(Br)cc1 (stereo partly specified)	-0.2	2920	nt	nt	nt	-16.5	nt
O=C(CNCCC1=CCCCC1)Nc1ccccc1N1CCCCCC1	8.3	5387	20.1	-1.6	3.1	-12.5	7.3
O=C(NC1CCCCCCC1)c1cccc(Cl)c1	1.0	3707	-13.6	nt	nt	-37.4	1.3
COc1ccc(Br)cc1C=NNC(=O)Cn1nnnc1N	nt	nt	3.5	-4.9	3.5	nt	2.8
CCn1c(C)nc2cc(C(=O)NN=Cc3ccccc3)ccc21	nt	nt	2.8	5.5	1.3	nt	6.0
O=C(C1CCCN(Cc2cccc(F)c2)C1)N1CCCCC1 (stereo unspecified)	12.7	16903*	3.5	nt	nt	-11.4	5.6
Cc1ccc(NC(=O)CNC(=O)Cc2cccc3ccccc23)c(O)c1	-1.0	nt	5.9	-5.2	0.5	-13.9	1.3
Cc1ccccc1-c1nc(CS(=O)(=O)CC(=O)NCCCN2CCCC2=O)c(C)o1	-2.9	5871	4.3	nt	nt	-24.4	4.1
CNC(=S)NNC(=O)c1sccc1OCc1ccc(Cl)cc1Cl	5.5	10979	-1.9	-3.6	7.3	-25.9	1.3
COc1cc(CCN2C(=O)NC(c3cccc(C(F)(F)F)c3)C(C(C)=O)=C2C)cc(OC)c1OC (stereo unspecified)	nt	nt	0.9	2.1	-0.6	nt	4.9
Cc1cccc(OC(=O)c2sc3ncn(C)c(=O)c3c2C)c1	-13.0	5147	-0.6	3.4	-1.1	-62.8	5.7
Cc1cccc(-n2c(=S)[nH]c3c(oc4ccccc43)c2=O)c1	-8.6	2212	-14.0	3.3	-2.2	-7.9	2.5
Cc1cc(NC(=O)c2ccc(Cl)cc2Cl)n(-c2ccccc2)n1	nt	4181	0.6	3.1	-4.3	-3.5	3.1
Cc1c(-c2ccccc2)[n+](=O)c2c(n1[O-])CCCCC2	0.0	7965	1.5	-0.6	6.5	-18.8	3.2
Cc1cc(C(=O)N/N=C/c2cccnc2)cs1	2.6	2568	nt	nt	nt	-27.4	nt
CC(=NNS(=O)(=O)c1ccc(C)c(C)c1)c1c[nH]c2ccccc12	nt	nt	3.7	12.9	2.9	nt	1.4
COc1ccc(CN(C(=O)/C=C/c2ccccc2Cl)C2CCS(=O)(=O)C2)cc1 (stereo unspecified)	-0.6	3932	-1.8	1.6	8.8	-21.0	5.2
CN(C)CCCN(C(=O)c1ccc(S(=O)(=O)N2CCc3ccccc3C2)cc1)c1nc2ccc(F)cc2s1	9.7	6557	nt	nt	nt	-1.7	nt
CCN(CC)S(=O)(=O)c1ccc2oc(C(=O)NC(C)C)c(C)c2c1	-19.7	6732	0.3	10.2	5.1	-10.8	9.0
COc1ccc(S(=O)(=O)N2CCCCCC2)cc1NC(=O)Cc1cc(OC)c(OC)c(OC)c1	-21.2	2137	-0.4	-2.4	11.4	3.1	1.0
CCN1C(=O)[C@H]2[C@@H](c3ccc(-c4ccccc4)cc3)N[C@@](Cc3ccccc3)(C(=O)OC)[C@H]2C1=O	0.8	4140	nt	nt	nt	1.2	nt
COc1cc(NC(=S)Nc2ccc(OC(F)F)cc2)cc(OC)c1	-9.2	5144	-0.6	6.3	4.8	-13.2	4.2
Cc1nn(Cc2ccccc2Cl)c(C)c1C(=O)OCC(=O)N1CC(C)OC(C)C1 (stereo unspecified)	-5.8	2523	4.3	10.6	-3.3	-14.0	4.2
Cc1ccc(S(=O)(=O)N2CCOCC2)cc1C(=O)NC(=S)N(Cc1ccccc1)C(C)C	-29.4	2199	6.6	-1.4	1.7	-15.2	1.2
Cc1c(Cl)cccc1N1CC(C)(C)C1=O	-4.9	2542	6.0	2.5	-6.7	-20.1	7.5
CC1=C(C(=O)Nc2cccc(C(=O)N3CCC(C(N)=O)CC3)c2)SCCO1	-5.8	4581	4.7	4.7	-4.1	-5.8	4.5
O=C(N/N=C/c1cccc([N+](=O)[O-])c1)c1ccccc1-n1cccc1	12.4	5038	nt	nt	nt	-27.9	nt
Cc1ccc(S(=O)(=O)c2ccc(NC(=O)c3c(F)cccc3F)cc2)cc1	10.0	3563	14.2	14.0	10.1	-11.1	-6.2
CC(C(=O)N(C)C)N1c2cccc3cccc(c23)S1(=O)=O (stereo unspecified)	-1.6	3218	9.0	20.0	14.7	-58.3	5.7
The listing continues:
SMILES	BJeLR viability	Bead autofluor	ugtP null kill	Mtb hypoxia rep	Mtb hypoxia rep growth	PrP UTR inh	RN4220 kill
Cn1nc(CC(=O)NCCN2C(=O)CSC2=O)c2ccccc2c1=O	-1.8	?	11.7	4.0	-2.8	-4.7	6.2
O=S1(=O)CCC(NS(=O)(=O)/C=C/c2ccccc2)C1 (stereo unspecified)	-4.3	22642*	-0.9	-7.4	2.3	-6.2	-0.7
CN(C)/C=N/C(=S)Nc1ccc(Cl)c(Cl)c1	-14.5	4367	nt	nt	nt	-16.1	nt
CCn1nnnc1SCC(=O)Nc1ccc(F)cc1	-5.5	3566	5.2	-0.3	-20.8	-12.1	0.7
Cc1oc(C(=O)O)cc1COc1cccc2cccnc12	-7.2	2987	-5.9	-7.7	-0.5	3.7	1.2

High-throughput results deposited in PubChem by several laboratories.
